# Source: PubChem
# gsp agonist = gsp mutant agonism. Potency, µM (series often up to 76.9 µM), for the others: at the top dose activation (cAMP increase), hits mostly activators. gsp mutant cells, cAMP HTRF, 30 min; control for the full effect not named in the record. hit rate 0.13% among 340,000; active = well fitted activation curve with a large enough effect; inconclusive = small, poorly fitted or top-dose-only effect, or another doubt; inactive = no such curve, though single readings can be large or run the other way; cell line not stated here;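 also: phosphodiesterase inhibitor Ro 20-1724 added with compounds to block cAMP breakdown; potency is read from the fitted curve at half-maximal effect; nearly all actives have a fitted effect of over 60% in size; about a fifth of the inactives were tested at one dose only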
#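 Cells in DMEM/10% FBS with G418 were pretreated with compounds in DMSO plus […] (300 uM stock) for 30 min at 37C. cAMP was measured by HTRF (cAMP-d2 plus anti-cAMP antibody-K) after 30 min at room temperature.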
# CtBP-E1A blk = blocks the CtBP interaction with E1A | AlphaScreen GST-E1A/His-CtBP binding, 1536-well; active compounds read low; control for the full effect not named in the record | hit rate 0.49% among 340,000 | AID 651724 | activity change, % (test concentration not listed); in the data active means activity change below about -65%; inconclusive means about -30% to -65%; inactive means above about -30%; also: % is scaled to controls: 0 for no effect and ±100 for the full control effect
#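 AlphaScreen with 125 nM GST-E1A and 125 nM His-CtBP (5X stocks) in Tris pH 8.0, 300 mM NaCl, BSA, Tween 20, TCEP. Compounds preincubated 2 h at 37 deg C, then glutathione donor/nickel acceptor beads added for 1 h at 37 deg C in dark.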
# gsp antagonist = antagonists of gsp mutant (McCune-Albright syndrome) | hit rate 0.4% among 340,000 | Potency, µM (highest dose often 76.9 µM), inactives show at the top dose activity change, negative = inhibition, actives largely listed as inhibitors | gsp-mutant cells, cAMP HTRF, 30 min; control for the full effect not named in the record | AID 624288; active = falling curve of any shape with a large fitted effect; inconclusive = falling curve, mostly with a smaller effect; inactive = flat or rising curve; cell line not stated here;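 also: intracellular cAMP measured with PDE inhibitor Ro 20-1724 present during compound exposure; potency is read from the fitted curve at half-maximal effect; % is scaled to controls: 0 for no effect and ±100 for the full control effect; nearly all actives have a fitted effect of over 65% in size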
#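 Cells, 2000/well, grown 16–24 h in DMEM 10% FBS with 0.5 mg/ml G418, then compounds plus […] (300 uM addition stock), 30 min at 37C. cAMP read by HTRF (cAMP-d2 and anti-cAMP antibody-K in lysis buffer) after 30 min RT.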
# Six1-Eya2 inh = blocks human Six1 binding to Eya2; Q15475+O00167; AlphaScreen GST-Six1/His-Eya2 binding, biochemical; active compounds read low; control for the full effect not named in the record; activity change, % (no concentration beside the values); hit rate 0.56% among 360,000; in the data active = activity change below about -65%; inconclusive = about -30% to -65%; inactive = above about -30%; also: % is scaled to controls: 0 for no effect and ±100 for the full control effect
# Target sequence (O00167 whole entry, looked up): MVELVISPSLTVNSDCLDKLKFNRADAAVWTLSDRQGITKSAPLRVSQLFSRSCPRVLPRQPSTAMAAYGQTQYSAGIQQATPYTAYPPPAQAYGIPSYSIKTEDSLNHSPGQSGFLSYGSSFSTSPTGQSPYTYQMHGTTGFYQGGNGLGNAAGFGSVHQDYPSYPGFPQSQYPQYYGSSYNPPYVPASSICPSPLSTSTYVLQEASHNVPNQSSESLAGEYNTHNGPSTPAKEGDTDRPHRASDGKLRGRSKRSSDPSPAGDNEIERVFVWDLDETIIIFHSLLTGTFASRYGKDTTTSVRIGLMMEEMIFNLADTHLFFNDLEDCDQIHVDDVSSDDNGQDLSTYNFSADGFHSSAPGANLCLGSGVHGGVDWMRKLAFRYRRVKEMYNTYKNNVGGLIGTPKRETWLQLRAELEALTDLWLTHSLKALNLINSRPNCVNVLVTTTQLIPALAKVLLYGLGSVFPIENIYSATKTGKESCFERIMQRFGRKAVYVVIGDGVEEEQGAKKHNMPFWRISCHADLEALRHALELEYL
# Target sequence (Q15475 whole entry, looked up): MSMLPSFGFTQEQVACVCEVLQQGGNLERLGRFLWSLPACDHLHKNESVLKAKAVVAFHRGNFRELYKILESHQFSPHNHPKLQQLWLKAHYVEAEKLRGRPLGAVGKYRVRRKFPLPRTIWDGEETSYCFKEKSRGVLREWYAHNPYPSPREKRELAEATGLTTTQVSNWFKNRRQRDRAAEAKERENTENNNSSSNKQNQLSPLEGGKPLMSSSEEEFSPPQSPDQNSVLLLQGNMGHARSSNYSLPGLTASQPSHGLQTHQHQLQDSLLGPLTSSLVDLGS
#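 Six1/Eya2 binding was read as AlphaScreen signal after compounds were pinned into GST-Six1 plus His-tagged Eya2 (5X stock 250/500 nM) in pH 8.0 Tris/NaCl/TCEP buffer, beads added, then incubated 1 h, 37 C, dark.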
# D2 potentiator = positive allosteric modulators of human D2 dopamine receptor | P14416 | DiscoveRx D2 beta-arrestin cells, luminescence, 90 min; 100% = 57 uM dopamine signal | potentiation, % (no concentration beside the values) | hit rate 0.23% among 360,000 | AID 624464; active = potentiation of 50% or more; inconclusive = 30% to 50%; inactive = 30% or less;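 also: compound concentration not given in the record; tested on top of an EC20 dose of dopamine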
#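 PathHunter D2 cells, attached overnight at 37 deg C, received compound in DMSO plus dopamine at EC20 (50 nM final) for 90 min at 37 deg C. Beta-arrestin recruitment was read as luminescence after 1 h with detection reagent at ambient temperature.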
# D2 ag = agonists of human D2 dopamine receptor (beta-arrestin); hit rate 0.084% among 360,000; DiscoveRx PathHunter D2 beta-arrestin, luminescence, 90 min; 100% = 57 uM dopamine signal; activation, % (test concentration not listed); P14416; in the data active = activation above about 40%; inconclusive = about 15% to 40%; inactive = below about 15%; also: compound concentration not given in the record; the text of the record calls up to 30% inactive
#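 DiscoveRx PathHunter D2 beta-arrestin cells (2,100/well) attached overnight, then compound-stimulated 90 min at 37 C in HBSS/10 mM HEPES/0.1% Tween-20 buffer; beta-galactosidase complementation read by luminescence after 1 h at ambient temperature. Dopamine 57 uM final (EC100) as control.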
# Starred values were filed as active, the others as inactive; ? = inconclusive; . = not tested or not shown; [ ] = remark or other dose.
gsp agonist	CtBP-E1A blk	gsp antagonist	Six1-Eya2 inh	D2 potentiator	D2 ag	compound
?	5	10%	9	-10	0.6	Cc1ccc(C(C)C)c(OCCNS(C)(=O)=O)c1
-28%	.	3%	8	-7	1.1	CC(C(=O)N1CCCCCC1)c1ccc([N+](=O)[O-])cc1 (centres undefined)
?	-4	9%	-8	23	6.9	COc1ccc(C)cc1N1C(=N)/C(=C2/Nc3ccccc3S2)C(c2ccccc2)C1=O (centres undefined)
-4%[15.4 µM]	-13	7%	4	-6	-6.0	CCCCOc1ccc(N(CC(=O)NC(C)C)C(=O)CCC(=O)Nc2ccccn2)cc1
5%	.	-2%	10	-5	-3.9	O=C(CN1C(=O)/C(=C\c2cccc(Br)c2)Oc2ccccc21)NCC1CCCO1 (centres undefined)
?	4	-11%	0	-4	-2.4	CCOC(=O)c1ccc(N2C(=O)C3C(/C=C/c4ccccc4)OC4(C(=O)c5ccccc5C4=O)C3C2=O)cc1 (centres undefined)
-9%	-13	11%	1	-4	-1.5	CC(=O)c1ccc(OCCOc2ccc(Cl)c3cccnc23)cc1
.	-2	8%	6	-63	-1.8	CCCC[C@@H]1CNCCN1CC1(c2ccccc2)CC1
.	-2	-3%	0	-5	-2.5	C#CCNC(=O)C1=C[C@@H](c2ccc(C(F)(F)F)cc2)C[C@@H](OCCCCO)O1
?	-1	1%	4	-2	0.9	CCCCCCCCS(=O)c1sc2nc3c(cc2c1N)CCCC3 (centres undefined)
0%	4	-12%	0	-3	-4.2	C=C(C)[C@@H]1CCC2(C(=O)O)CC[C@]3(C)[C@H](CC[C@@H]4[C@@]5(C)CCC(=O)C(C)(C)[C@@H]5CC[C@]43C)[C@@H]12 (some centres undefined)
-13%	4	-9%	-6	-17	-2.8	Cn1c(=O)c2c(nc(N3CCN(c4ccccc4)CC3)n2CCCc2ccccc2)n(C)c1=O
-32%[inhibitor]	0	9%	7	-10	-1.6	O=S(=O)(NC1CCCCC1N1CCOCC1)c1ccc(Cl)cc1 (centres undefined)
-3%	-7	-5%	-1	-23	-3.4	Cc1ccc(S(=O)(=O)Cc2sc3ccccc3[n+]2C)cc1
-37%[15.4 µM]	0	-4%	-5	-8	-3.3	COc1cc(C(=O)NCCOc2ccc(F)cc2)c(Br)c(OC)c1OC
5%	5	2%	5	-10	-0.5	CC1(C)CC(=O)c2c(Cc3ccccc3)n[nH]c2C1
19%[15.4 µM]	-2	3%	2	-4	-4.3	CCN(CC)C(=O)c1cn(-c2ccccc2)nc1-c1ccc2c(c1)OCCO2
-13%	10	-3%	5	-15	0.1	Cc1ccc(CNC(=O)C2CCC(=O)N(CCCN3CCOCC3)C2)cc1 (centres undefined)
-21%	.	-2%	-1	-21	-7.3	C(=N\Nc1ccccc1)/c1nc2ccccc2s1
20%[15.4 µM]	-2	5%	-1	-1	-1.2	CC(=O)Nc1ccc(NC(=S)Nc2ccc(Br)cc2)cc1

# Full records from above. Order of values: gsp agonist | CtBP-E1A blk | gsp antagonist | Six1-Eya2 inh | D2 potentiator | D2 ag
# Record of COc1cc(C(=O)NCCOc2ccc(F)cc2)c(Br)c(OC)c1OC = -37%[15.4 µM] | 0 | -4% | -5 | -8 | -3.3
# Record of COc1ccc(C)cc1N1C(=N)/C(=C2/Nc3ccccc3S2)C(c2ccccc2)C1=O (centres undefined) = ? | -4 | 9% | -8 | 23 | 6.9
# Record of Cc1ccc(CNC(=O)C2CCC(=O)N(CCCN3CCOCC3)C2)cc1 (centres undefined) = -13% | 10 | -3% | 5 | -15 | 0.1
# Record of CCOC(=O)c1ccc(N2C(=O)C3C(/C=C/c4ccccc4)OC4(C(=O)c5ccccc5C4=O)C3C2=O)cc1 (centres undefined) = ? | 4 | -11% | 0 | -4 | -2.4

# Carrying on:
gsp agonist	CtBP-E1A blk	gsp antagonist	Six1-Eya2 inh	D2 potentiator	D2 ag	compound
-1%[15.4 µM]	-11	23%	28	-1	-1.0	O=C(C1=C(O)C(=O)N(CC2CCCO2)C1c1cccc(O)c1)c1ccco1 (centres undefined)
6%	0	4%	2	2	-1.5	O=C(CNS(=O)(=O)c1cccc(C(F)(F)F)c1)Nc1ccccc1F
-1%	27	2%	22	-6	0.6	CC1CCN(S(=O)(=O)c2cc(Cl)ccc2Br)CC1
.	-6	10%	5	-19	-1.0	CC(Cc1ccccc1)C(=O)NCc1ccncc1 (centres undefined)
.	-6	.	-8	-8	-5.2	CN(C)c1cccc(-c2cc(Nc3ccc(C(C)(C)C)cc3)ncn2)c1
-26%	-4	-10%	0	23	0.6	CCOC(=O)C1CCCN(C(=O)c2cccc(S(=O)(=O)N(C)c3ccc(OC)cc3)c2)C1 (centres undefined)
.	5	9%	0	.	1.6	CN(C(=O)c1ccc(NC(=O)Cc2ccc(NC(=O)C3CCCN(C(=O)C4CCC4)C3)cc2)cc1)C1CCCC1 (centres undefined)
0%	5	-3%	0	17	3.3	O=C(NCc1cccc(C(F)(F)F)c1)C1CCC(=O)N(C2CCCCCC2)C1 (centres undefined)
10%[15.4 µM]	-3	-1%	6	-4	-7.5	NS(=O)(=O)c1ccc(CCNC(=O)COC(=O)CCSc2ccc(Cl)cc2)cc1
?	.	2%	-3	12	8.1	O=C(CN1CCN(c2ccc(O)cc2)CC1)NCC(=O)Nc1ccc(F)c(F)c1F
-3%	0	-5%	7	-17	10	CC(=O)N(CN1C(=O)C2CC=CCC2C1=O)c1cccc(Cl)c1 (centres undefined)
8%	0	6%	1	11	0.6	CC(C)N1CC2=C(OC(N)=C(C#N)C2c2cccnc2)/C(=C/c2cccnc2)C1 (centres undefined)
19%[15.4 µM]	19	-6%	32	-9	-3.3	CC(=O)c1cnc2c(-c3ccccc3)c(C(F)(F)F)nn2c1C
-12%	9	4%	5	-4	-2.3	CCCCSc1nnc(-c2ccc(C)cc2)n1C
.	4	4%	-4	4	2.1	CN(Cc1ccccc1)C(=O)c1cccc(NC(=O)Cc2ccc(NC(=O)C3CCCN(C(=O)CCc4ccccc4)C3)cc2)c1 (centres undefined)
18%	?	9%	?	-13	0.8	Cc1ccccc1N1CCN(C(=S)c2ccc([N+](=O)[O-])cc2)CC1
-24%	2	11%	2	-9	-0.6	CCCCCCCCn1c(N2CCN(c3cccc(Cl)c3)CC2)nc2c1c(=O)[nH]c(=O)n2C
4%	.	-7%	10	-9	-2.7	COc1ccccc1NC(=O)COC(=O)C1CCCC1
13%	-1	-1%	4	-13	-5.9	O=C(NCCC1=CCCCC1)c1c(O)nc2sccn2c1=O
-2%	1	0%	0	-13	-3.6	Cc1c(N=C/C=C2\N(C)c3ccccc3C2(C)C)c(=O)n(-c2ccccc2)n1C
19%	4	5%	-2	-5	-0.5	CSc1ccccc1NC(=O)c1ccc(C)o1
2%[15.4 µM]	1	7%	-1	-6	-3.3	O=C(COC(=O)COc1ccccc1)Nc1ccc(Br)cc1F
-26%	1	-4%[15.4 µM]	-5	-19	-3.0	CCc1ccc(NC(=O)CSc2nnc(-c3cccs3)n2CC)cc1
.	-6	.	0	-9	-5.5	CCCCCC[n+]1ccccc1/C=C/c1ccc(N(C)C)cc1
-6%	2	1%	0	-5	-4.4	CCCCNC(=O)C1CCN(S(=O)(=O)c2ccc3c(c2)CC(C)N3C(=O)C2CC2)CC1 (centres undefined)
4%	0	0%	1	5	-3.5	CSc1ccccc1C(=O)Nc1ccc2c(c1)OCO2
21%	8	5%	2	3	-1.3	COc1ccc(CNC(=O)COc2ccc(F)cc2)cc1
-5%[15.4 µM]	-4	-15%	-1	-2	-0.3	CN(C)c1ccc(/C=N/NC(=O)CCCCCNC(=O)c2ccccc2)cc1
-2%	5	?	5	-10	-3.1	CCC(CC)C(=O)N1c2ccc(F)cc2CCC1C (centres undefined)
-4%	-3	-5%	4	-6	-1.9	CCN(CC(=O)NCc1cccs1)C(=O)c1ccc(NS(=O)(=O)c2cccc([N+](=O)[O-])c2)cc1
-21%	4	18%	1	5	1.5	Clc1cccc(Oc2ncc(CN3CCOCC3)s2)c1
34%	-9	-33%	-11	4	0.8	CN(C)c1ccc(NC(=O)c2cccc(N3C(=O)C4C5C=CC(C5)C4C3=O)c2)cc1 (centres undefined)
.	?	2%	-1	-21	-1.3	CC(C)C[C@H]1CNC(=S)N1CC1CCN(CC2CCC(C(C)(C)C)CC2)CC1 (some centres undefined)
-24%	-7	-22%	-3	-6	0.0	Cc1oc(C(=O)Nc2ccc(C(=O)O)cc2)cc1COc1ccccc1
-14%	4	10%	24	-5	-0.2	CCOC(=O)c1ccc(NC(=O)C2C3CCC(C3)C2C(=O)O)cc1 (centres undefined)
.	-1	1%	-5	0	2.6	O=C(NCc1nc2ccccc2[nH]1)C1=C[C@H](c2ccc3c(c2)OCO3)C[C@H](OCCCCO)O1
0%	0	2%	4	-1	2.7	Cc1nc2nc(C)c(NS(=O)(=O)c3ccc(C4CCCCC4)cc3)c(=O)n2[nH]1
16%	-9	3%	5	-2	-1.3	Nc1nc2ccc(-c3nc4ccccc4o3)cc2s1
?	-8	-14%	7	-8	-0.4	CCN(C(=O)CSc1nc(C)c(C)c(C)n1)C1CCS(=O)(=O)C1 (centres undefined)
-1%[15.4 µM]	3	-7%	12	0	-1.8	Cc1cc(NC(=O)CCC(=O)N(CC(C)C)C(C(=O)NC(C)(C)C)c2ccccc2Cl)no1 (centres undefined)
-16%	9	5%	1	-7	4.0	Cc1cccc(CNC(=O)CCc2nnc(C3CCCCC3)o2)c1
-2%	.	-9%	-3	-2	-1.5	COC(=O)C(Cc1ccccc1)NC(=O)CCC(=O)NC(C)CCc1ccccc1 (centres undefined)
-12%	3	-21%	10	-15	6.4	O=C(CN1C(=O)COc2ccc(Cl)cc21)Nc1ccc(N2CCOCC2)cc1
-22%	-6	-10%	-1	-6	-6.8	CC(C)CCN(N=O)[C@@H](Cc1ccccc1)CN(N=O)[C@@H](Cc1ccccc1)CN(C)N=O
-51%[inhibitor]	10	-14%	2	-7	-3.2	CC1CCN(C(=O)/C(=C/c2ccccc2Cl)c2ccccc2)CC1
.	-15	.	-19	4	6.6	CCc1nc2ccc(C(=O)Nc3ccc(OC)c(OC)c3)cn2c1N(C)Cc1ccc(OC)cc1
9%	3	-11%	8	-23	-0.7	CC(C)[C@H](NS(=O)(=O)c1ccccc1)C(=O)OCC(=O)Nc1ccccc1Sc1ccccc1
0%[15.4 µM]	0	-42%	-19	-14	-8.8	Fc1cccc(Cl)c1CSc1ccc2nnc(-c3ccccn3)n2n1
?	-2	-17%	-4	-1	-0.4	O=C(NCC(c1ccc(F)cc1)N1CCOCC1)c1ccc(-c2ccccc2)cc1 (centres undefined)
-13%	0	-20%	4	-1	-3.2	Cc1cc(=O)oc2cc(OCC(=O)OCC(=O)N(CCC#N)c3ccccc3)ccc12
-8%[15.4 µM]	14	10%	2	6	1.8	O=C(CSc1ccc(-c2ccccc2)nn1)N1CCCCC1
